# CHT PAM: allosteric activators of human choline transporter CHT; Q9GZV3; CHT-expressing cells, membrane potential dye, choline EC20; hits give high values; LV-AA mutant CHT in HEK293 cells; B-score at 10 µM; hit rate 0.49% among 310,000;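 active = initial fluorescence not abnormally high and integrated response B-score, plate-corrected, over 3 SD above library mean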
# Target sequence (Q9GZV3 whole entry, looked up): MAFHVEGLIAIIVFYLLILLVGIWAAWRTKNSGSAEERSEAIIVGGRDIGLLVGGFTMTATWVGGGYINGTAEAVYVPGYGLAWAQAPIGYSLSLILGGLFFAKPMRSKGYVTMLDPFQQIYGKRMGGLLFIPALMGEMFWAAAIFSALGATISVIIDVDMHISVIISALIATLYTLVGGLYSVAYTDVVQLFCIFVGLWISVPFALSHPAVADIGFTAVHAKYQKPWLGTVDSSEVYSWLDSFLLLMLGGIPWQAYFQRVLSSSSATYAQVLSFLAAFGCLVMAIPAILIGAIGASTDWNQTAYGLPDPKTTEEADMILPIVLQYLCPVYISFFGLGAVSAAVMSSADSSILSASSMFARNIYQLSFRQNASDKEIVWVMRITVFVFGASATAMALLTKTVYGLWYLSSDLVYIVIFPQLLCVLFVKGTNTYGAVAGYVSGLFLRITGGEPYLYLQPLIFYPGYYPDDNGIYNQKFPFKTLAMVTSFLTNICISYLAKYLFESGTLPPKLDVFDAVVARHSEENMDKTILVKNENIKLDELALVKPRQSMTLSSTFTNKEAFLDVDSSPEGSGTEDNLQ
# Calls only; i = inactive.
SMILES,CHT PAM
CC(=O)c1c(C)n(Cc2ccccc2)c2ccc(O)cc12,i
C1=C(c2c[nH]c3ccccc23)CCN(Cc2ccccc2)C1,i
CC(C)Nc1ccc(Nc2ccccc2)cc1,i
FC(F)(F)c1ccccc1CNCCc1c[nH]c2ccccc12,i
CSc1ccccc1C(=O)C1CCCN(Cc2ccccn2)C1 (stereo not given),i
COc1ccc(CN2CCN(C(=O)Cc3ccccc3)CC2)c(OC)c1,i
CN1CCN(c2ccc([N+](=O)[O-])cc2Cl)CC1,i
CN1C(=O)N(C)C(=O)C2(Cc3ccccc3N3CCOCC32)C1=O (stereo not given),i
CC1(C)CN=C(Nc2nc3ccccc3s2)S1,i
CN(C(=O)c1ccco1)C1(c2ccccc2Cl)CCCCC1=O (stereo not given),i
CC(=O)Nc1ccc(N=Cc2c(O)n(Cc3ccco3)c(=O)[nH]c2=O)cc1,i
COc1cc(CN2CCCC(C(=O)c3sccc3C)C2)cc(OC)c1O (stereo not given),i

# Quoted at random: 5 compounds from above.
SMILES,CHT PAM
CN1C(=O)N(C)C(=O)C2(Cc3ccccc3N3CCOCC32)C1=O (stereo not given),i
C1=C(c2c[nH]c3ccccc23)CCN(Cc2ccccc2)C1,i
CN1CCN(c2ccc([N+](=O)[O-])cc2Cl)CC1,i
CC(=O)Nc1ccc(N=Cc2c(O)n(Cc3ccco3)c(=O)[nH]c2=O)cc1,i
CSc1ccccc1C(=O)C1CCCN(Cc2ccccn2)C1 (stereo not given),i

# Remaining list, next part:
SMILES,CHT PAM
Nc1c(C(=O)NC2CCCC2)c2nc3ccccc3nc2n1CC1CCCO1 (stereo not given),i
COC(=O)c1ccc(N2C(=O)CC(N3CCC(n4c(=O)[nH]c5ccccc54)CC3)C2=O)cc1 (stereo not given),i
CN1C(=O)NC(=O)/C(=C\c2ccc([N+](=O)[O-])o2)C1=O,i
COc1ccccc1N(CC(=O)NC1CCCC1)C(=O)c1cnn(C(C)C)c1,i
O=C(c1cc2cc3ccc(Cl)cc3nc2o1)N1CCC2(CC1)OCCO2,i
O=C1C(c2ccccc2)=C(N2CC2)c2ccccc21,i
c1cncc(C2CCCN2)c1 (stereo not given),i
O=c1[nH]c(=O)n(Cc2ccccc2)c(O)c1C=NCCN1CCNCC1,i
Cc1c2cnn(CC(=O)N3CCC4(CC3)OCCO4)c(=O)c2c(C)n1Cc1ccccc1F,i
O=C1NC(=O)N(c2ccc3c(c2)OCO3)C(=O)/C1=C/c1cccs1,i
O=C1CN=C(c2ccccc2F)c2cc(Cl)ccc2N1,i
CC1C2Cn3c(nc4ccccc43)C1N(C)O2 (stereo not given),i
CCOP(=O)(CN(CC)CCNP(=O)(OCC)OCC)OCC,i
CCOC(=O)[C@@]1(C#N)[C@@H]2C=CC(C(N)=O)=CN2[C@@H](C(N)=O)[C@@H]1c1cccc(Cl)c1,i

# 7 structures from above, ordered by molecular weight, highest first:
SMILES,CHT PAM
Cc1c2cnn(CC(=O)N3CCC4(CC3)OCCO4)c(=O)c2c(C)n1Cc1ccccc1F,i
COc1ccccc1N(CC(=O)NC1CCCC1)C(=O)c1cnn(C(C)C)c1,i
O=c1[nH]c(=O)n(Cc2ccccc2)c(O)c1C=NCCN1CCNCC1,i
O=C1CN=C(c2ccccc2F)c2cc(Cl)ccc2N1,i
CN1C(=O)NC(=O)/C(=C\c2ccc([N+](=O)[O-])o2)C1=O,i
CC1C2Cn3c(nc4ccccc43)C1N(C)O2 (stereo not given),i
c1cncc(C2CCCN2)c1 (stereo not given),i

# Compound activity: PubChem BioAssay, Johns Hopkins Ion Channel Center

# These rows are one share of the data, and most or all hits are left out here.
